# GLA inh pH 4.5 = qHTS Assay for Inhibitors of Human alpha-Galactosidase at pH 4.5 | Alpha-galactosidase A (Homo sapiens), P06280 | purified enzyme, 4-MU-alpha-Gal fluorescence, pH 4.5 | activity change, negative = inhibition, % at 105 µM | 230,000 tested, under 10 active; inconclusive = small, poorly fitted or top-dose-only inhibition, or a rising curve; inactive = flat fitted curve, though single readings scatter; no compound was filed as active;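 also: 0% = full activity with enzyme and -100% = basal without enzyme; dose as in the result columns while the protocol names 77 µM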
# Target sequence (P06280 whole entry, looked up): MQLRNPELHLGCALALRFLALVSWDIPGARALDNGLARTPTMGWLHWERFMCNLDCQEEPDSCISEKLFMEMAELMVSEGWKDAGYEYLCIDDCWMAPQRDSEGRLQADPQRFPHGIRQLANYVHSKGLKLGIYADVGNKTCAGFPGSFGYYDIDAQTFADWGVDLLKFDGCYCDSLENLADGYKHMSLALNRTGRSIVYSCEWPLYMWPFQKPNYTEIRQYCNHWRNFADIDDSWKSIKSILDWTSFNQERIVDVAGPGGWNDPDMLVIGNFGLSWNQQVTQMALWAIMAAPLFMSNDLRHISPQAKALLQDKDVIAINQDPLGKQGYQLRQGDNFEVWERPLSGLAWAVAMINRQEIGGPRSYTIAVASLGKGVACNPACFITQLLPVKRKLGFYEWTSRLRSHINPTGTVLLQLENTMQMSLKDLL
# Rango-impB inh = qHTS Assay for Inhibitors of Rango (Ran-regulated importin-beta cargo) - Importin beta complex formation | Importin subunit beta-1 (Homo sapiens), Q14974 | Rango CFP/YFP FRET sensor + importin beta, 45 min | Potency, µM (doses to about 92.2 µM), inactives show at the highest dose inhibition of complex formation | hit rate 0.031% among 340,000 | AID 540263, 2011; active = rising FRET ratio curve, often small or poorly fitted; inconclusive = mostly compound fluorescence or quenching in the first reads; inactive = flat curves in all reads;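 also: potency is read from the fitted curve at half-maximal effect; 0% = DMSO wells and 100% = buffer wells lacking importin beta; nearly all actives have a fitted effect of over 15% in size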
#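 FRET biosensor Rango (snurportin 1 IBB between N-terminal EYFP and C-terminal Cerulean), 50 nM in PBS/1 mM DTT/0.02% Tween-20/0.1% BSA, preincubated 5 min RT with compound; 0.125 microM importin beta added, 45 min RT, CFP/YFP FRET ratio read.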
# Rango release inh = qHTS Assay for Inhibitors of RanGTP induced Rango (Ran-regulated importin-beta cargo) - Importin beta complex dissociation | hit rate 0.071% among 340,000 | Potency, µM (titrated, usually from 46.1 µM), for the others: top-dose activity change, negative = inhibition | AID 540253, 2011 | Snurportin-1 (Homo sapiens) + GTP-binding nuclear protein Ran (Homo sapiens) + Importin … | Biochemical FRET Rango-importin beta, RanGTP-induced dissociation; active means falling FRET ratio curve, often poorly fitted, with flat reads before Ran was added; inconclusive means other falling curves, or compound fluorescence or quenching; inactive means flat or rising ratio curve;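 also: potency is read from the fitted curve at half-maximal effect; % of control where 0% means no effect; nearly all actives have a fitted effect of over 45% in size; -100% = wells without RanGTP and RCC1; the record marks most hits as doubtful in a second field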
#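 FRET read at 45 min, room temperature: inhibitors block the CFP/YFP signal rise when RanGTP (0.6 uM Ran, 2 mM GTP, 0.2 uM RCC1) frees Rango (0.1 uM) from importin beta (0.25 uM). Pre-read after 5 min compound exposure flags interference.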
# miR-21 FLuc = qHTS Assay for Modulators of miRNAs and/orActivators of miR-21 | HeLa miR-21 FLuc reporter, luciferase, 48 h | Potency, µM (doses to about 38.3 µM), without a hit: top-dose reporter change, positive = more light | 340,000 tested, under 10 active; active = well fitted rising curve with a large enough effect; inconclusive = small, poorly fitted or top-dose-only effect; inactive = no such curve, though single readings can be large or run the other way;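 also: % of control where 0% means no effect; miR-21 action dims this reporter so a rising signal means less miR-21 action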
#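 Using DMEM plus 10% FBS, HeLa miR-21-FLuc cells are incubated with test compounds (final up to about 40uM) for 48 hours; firefly luciferase signal is then imaged following reagent-mediated lysis.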
# Numbers without * were called inactive; ? = inconclusive; / = no result given. A portion of the library. The share of hits here may be higher or lower than overall.
SMILES	GLA inh pH 4.5	Rango-impB inh	Rango release inh	miR-21 FLuc
CCOC(=O)C1(C)/C(=N/Nc2ccccc2)C(=O)C(=O)N1c1ccccc1 (configuration not stated)	2.3	0.4%	4.1%	-6.3%
CC(=O)Nc1ccc(-c2csc(Nc3cc(C)ccn3)n2)cc1	-0.2	6.1%	1.0%	28.4%
O=C(CCC1CCCC1)NNC(=O)c1cccc(Cl)c1	/	-0.7%	0.7%	-0.2%
CCCCn1c(SCC(=O)Nc2ccc(OC)cc2)nc2ccc(N3CCOCC3)cc2c1=O	-4.9	-0.3%	-12.3%	0.4%
CCOCCCNC(=O)C1CC(=O)N(CCc2ccc(C)cc2)C1 (configuration not stated)	/	0.5%	-17.5%	1.4%
COc1ccccc1CN1[C@@H](CC(=O)O)c2ccccc2S1(=O)=O	/	0.3%	4.1%	/
Cc1cc(NC(=O)CSc2nnc(C3COc4ccccc4O3)n2N)no1 (configuration not stated)	7.1	0.2%	-11.8%	-20.0%
COc1cccc2c1OCC/C2=N\NC(=O)C(C)Oc1ccc([N+](=O)[O-])cc1 (configuration not stated)	-2.5	-0.7%	-2.6%	-0.4%
Cn1cc(C(=O)N/N=C/c2ccc(Br)c([N+](=O)[O-])c2)c2ccccc21	1.5	3.0%	-21.3%	-3.7%
O=C(NNC(=S)NC(=O)c1cccnc1)c1ccccc1	1.7	-1.3%	-8.1%	-7.5%
C/C(=N\NC(=O)c1nnn(-c2nonc2N)c1-c1ccc(Cl)c(Cl)c1)c1ccncc1	/	-1.0%	8.0%	-0.1%
Cc1cc(-c2ccccc2)nc(N/N=C/c2ccc(O)cc2)n1	/	-1.8%	-0.9%	/
Cc1ccc(S(=O)(=O)N2CCCCC2CCNC(=O)C(=O)NCc2ccccc2C)cc1 (configuration not stated)	/	-0.7%	-4.5%	/
CC(C)Nc1cc(C(F)(F)F)nc(-c2ccccn2)n1	3.6	-5.6%	-5.3%	4.1%
C=C(C)C1CCC(C)=C1COC(=O)Nc1ccccc1 (configuration not stated)	-0.4	3.0%	1.8%	-8.5%

# 6 compounds out of the list above, arranged by the value under miR-21 FLuc, falling.
SMILES	GLA inh pH 4.5	Rango-impB inh	Rango release inh	miR-21 FLuc
CC(=O)Nc1ccc(-c2csc(Nc3cc(C)ccn3)n2)cc1	-0.2	6.1%	1.0%	28.4%
CCOCCCNC(=O)C1CC(=O)N(CCc2ccc(C)cc2)C1 (configuration not stated)	/	0.5%	-17.5%	1.4%
CCCCn1c(SCC(=O)Nc2ccc(OC)cc2)nc2ccc(N3CCOCC3)cc2c1=O	-4.9	-0.3%	-12.3%	0.4%
O=C(CCC1CCCC1)NNC(=O)c1cccc(Cl)c1	/	-0.7%	0.7%	-0.2%
Cn1cc(C(=O)N/N=C/c2ccc(Br)c([N+](=O)[O-])c2)c2ccccc21	1.5	3.0%	-21.3%	-3.7%
Cc1cc(NC(=O)CSc2nnc(C3COc4ccccc4O3)n2N)no1 (configuration not stated)	7.1	0.2%	-11.8%	-20.0%

# Further entries:
SMILES	GLA inh pH 4.5	Rango-impB inh	Rango release inh	miR-21 FLuc
CCOC(=O)c1cn2ccc(C)cc2n1	3.8	1.8%	-0.8%	-32.4%
CC(NC(=O)C[n+]1cccc(Br)c1)c1ccccc1 (configuration not stated)	/	2.2%	19.0%	-10.0%
COC(=O)C1C(=O)C(C(=O)c2ccccc2)C(=O)CC1(C)C (configuration not stated)	/	4.4%	-6.8%	-0.4%
O=C(O)CC1=C(Nc2ccccc2)C(=O)N(c2ccccc2)C1c1ccc(Cl)cc1 (configuration not stated)	-3.5	0.1%	1.9%	-38.1%
COCCn1nnnc1C(C(C)C)N1CCN(C(=O)c2ccco2)CC1 (configuration not stated)	0.9	0.0%	-11.1%	-0.8%
COc1ccc(CC(=O)Nc2ccc(-c3noc(-c4cc(OC)c(OC)c(OC)c4)n3)cc2)cc1	-5.7	2.3%	-6.1%	-7.3%
COc1ccc2cnn(CCOc3ccccc3)c(=O)c2c1OC	1.5	2.3%	5.5%	-33.4%
O=Cc1ccc(-n2nncc2-c2ccc([N+](=O)[O-])cc2)cc1	-2.2	2.4%	6.5%	-9.5%
O=C(COC(=O)c1nc(Cl)ccc1Cl)NCc1ccc(Cl)cc1Cl	/	-1.4%	1.5%	/
Cn1c(=O)n(CCC(=O)O)c2ccccc21	-2.5	0.6%	-4.9%	-1.7%
Cc1cc(C(=O)N2CCCC(N3CCN(c4cccc(Cl)c4)CC3)C2)nn1C (configuration not stated)	/	-1.1%	-1.5%	-11.3%
COc1ccc(-c2c(C)nn3c(NC4CCCC4)cc(C)nc23)cc1OC	/	2.9%	3.7%	9.9%
CCN(CC)S(=O)(=O)c1cc(NC(=O)CO/N=C(\N)c2ccccc2Cl)ccc1C	/	-1.1%	-9.3%	/
Cc1ccc(NC(=O)/C=C/c2ccc(Cl)cc2)nc1	-6.6	-5.7%	-17.9%	-31.2%
O=C(NNC(=O)C1CC1)c1ccc(-c2ccccc2)cc1	22.0	0.6%	-9.1%	-19.8%
Cc1ccnc2nc(C(=O)OCCOc3ccccc3)nn12	2.9	-8.6%	2.9%	-3.2%
Cc1onc(-c2ccccc2)c1C(=O)OCC(=O)Nc1ccc(Cl)cc1	/	-5.0%	10.8%	/
O=C(COC(=O)/C=C/c1cccc(Cl)c1)NCCC1=CCCCC1	-0.4	6.8%	12.0%	-6.3%
O=C1C(NS(=O)(=O)c2cccs2)=C(N2CCOCC2)C(=O)c2ccccc21	1.3	0.6%	10.0%	8.7%
CCOc1ccc(NC(=O)CN(C)C(=O)c2ccccc2CCc2ccccc2)cc1OCC	/	0.6%	0.3%	/
CCc1ccc(C2=NN(CCC(=O)NC(C)c3ccc4c(c3)OCCO4)C(=O)CC2)cc1 (configuration not stated)	-10.1	-0.7%	-16.5%	4.3%
CCOc1ccccc1NC(=O)CCCNC(=O)c1ccc(Cl)cc1	/	4.6%	8.2%	-4.1%
Cc1ccc2nc(NCc3ccccc3)[nH]c2c1	-8.2	-0.7%	17.9%	4.9%
N#CC1=C(N)NC(SCC(=O)Nc2ccccc2)=C(C#N)C12CCCC2	-24.4	0.0%	-5.9%	-2.3%
O=C(Nc1cccc2c1N(C(=O)c1ccco1)CCC2)c1ccco1	-2.9	-1.3%	0.1%	-4.2%
CC(C)C(NC(=O)c1c(F)cccc1F)C(=O)OCN1C(=O)c2ccccc2C1=O (configuration not stated)	/	-0.4%	1.8%	/
CCc1ccccc1NC(=O)COc1ccc2c(=O)c(Oc3cc(C)ccc3C)coc2c1	-9.5	-1.0%	-3.6%	-1.1%
O=C(CN(Cc1ccccc1Cl)C(=O)c1ccc(CN2CCOCC2)o1)NCc1ccccc1	-15.2	-0.4%	1.6%	2.8%
Cc1cccc(C(=O)N2c3ccccc3C(=O)OC2c2ccc3c(c2)OCO3)c1 (configuration not stated)	2.1	2.0%	15.0%	-35.7%
CCNC(=O)NC(=O)C(C)OC(=O)C1CCN(S(=O)(=O)c2ccccc2C(=O)OC)CC1 (configuration not stated)	-26.6	0.2%	-11.1%	-1.8%

# The list continues.
# Below each SMILES: GLA inh pH 4.5	Rango-impB inh	Rango release inh	miR-21 FLuc
> O=C(Nc1cc(Cl)cc(Cl)c1)c1cccc(OC(F)F)c1
  -9.9	0.0%	7.1%	25.5%
> CC(C1CC1)N(C(=O)c1ccccc1[N+](=O)[O-])c1ccccc1 (configuration not stated)
  1.9	0.3%	-1.7%	16.8%
> Cn1cccc1C(=O)OCC(=O)Nc1ccc2c(c1)OCCO2
  /	-1.2%	-3.0%	/
> COc1ccccc1CNS(=O)(=O)c1ccc2c(c1)NC(=O)C(C)S2 (configuration not stated)
  /	-0.3%	-1.3%	11.3%
> CC(=O)c1cccc(NC(=S)NC(=O)c2ccccc2C)c1
  2.1	1.6%	6.3%	-1.2%
> O=S(=O)(Nc1ccc(-c2nc3cccnc3s2)cc1)c1ccc(Cl)s1
  28.2	?	?	-54.9%
> NC(=O)C1(N2CCCCC2)CCN(C(=O)CCCn2c(=O)[nH]c3ccsc3c2=O)CC1
  1.7	1.1%	1.0%	0.8%
> Cc1ccccc1CN1CCc2c(OCC(=O)N3CCCCC3)cccc2C1=O
  -18.9	-0.2%	1.0%	-1.0%
> COc1ccc2c(C(=O)CN(C)C3CCCCC3)c[nH]c2c1
  -4.1	-2.6%	?	-11.6%
> CCc1[nH]nc(C(=O)N2CCCC(C(=O)c3cccc(C(F)(F)F)c3)C2)c1C (configuration not stated)
  /	-0.9%	-12.5%	7.5%
> Cn1cc(S(=O)(=O)N2CCNCC2)cc1C(N)=O
  /	0.4%	1.9%	/
> C=CCN(c1ccccc1C(=O)NCC(=O)O)S(=O)(=O)c1ccccc1C
  0.7	3.8%	-12.4%	-0.7%
> Cc1nc(CC(=O)c2ccc(O)cc2O)cs1
  5.1	-1.9%	-1.0%	-31.1%
> COc1cc(/C=C(\C#N)c2nc3ccccc3[nH]2)cc(Br)c1OCc1ccc(F)cc1
  -10.3	?	?	-13.0%
> O=C(COc1ccc2c(c1)oc(=O)c1ccccc12)NCC1CCC(C(=O)O)CC1 (configuration not stated)
  /	3.8%	0.8%	-4.1%
> O=C(CCN1C(=O)/C(=C/c2ccco2)SC1=S)Nc1ccc(C(=O)O)c(O)c1
  /	-0.8%	7.3%	-0.2%
> CCCC(=O)c1ccc(N2CCCC2)c(F)c1
  4.1	4.2%	3.9%	-35.5%
> CCOC(=O)c1cnc2cc(C)nn2c1C
  0.3	-1.8%	1.6%	-4.5%
> COCCNC(=O)CN(C(=O)c1ccc(N2CCCC2)nc1)c1ccccc1
  0.5	-2.7%	-6.4%	0.9%
> CN(C)S(=O)(=O)Oc1ccc(C(=O)Nc2ccc([N+](=O)[O-])cc2)cc1
  2.7	-0.7%	-10.1%	3.3%
> CCCCC(CC)COC(=O)C(C#N)=C(c1ccccc1)c1ccccc1 (configuration not stated)
  -11.1	-0.4%	11.9%	/
> CCOc1ccccc1C1CC(=O)Nc2cc3c(cc21)OCO3 (configuration not stated)
  3.4	1.6%	1.9%	25.7%
> O=C(c1ccc(-n2c(SCc3cc(F)ccc3F)nc3ccccc3c2=O)cc1)N1CCOCC1
  -10.6	1.4%	1.6%	-3.0%
> C=C(CCO)C1=CCN(S(=O)(=O)C(C)(C)C)[C@@H]1CCO
  /	6.4%	0.8%	/
> CCC1CCCCN1S(=O)(=O)c1ccccc1 (configuration not stated)
  /	1.6%	0.5%	-1.5%
> CCN1CCN(P2(=O)C=C(c3ccccc3)OC(c3ccccc3)=C2)CC1
  2.2	1.4%	-5.2%	-2.4%
> COc1ccc(/C=C(/NC(=O)c2ccco2)C(=O)N2CCOCC2)cc1
  /	0.5%	-13.9%	-3.9%
> Cc1onc(-c2c(Cl)cccc2Cl)c1NC(=O)NNc1ccccn1
  -0.9	0.0%	-1.8%	-1.5%
> C#CCOCCOCCOCCNc1nc(N2CCN(C(=O)CCCCCCCCCCNC(=O)[C@@H](CCSC)n3cc(CCO)nn3)CC2)nc(N2CCN(C(=O)CCCCCCCCCCNC(=O)[C@H](CO)n3cc(CCCCCN)nn3)CC2)n1
  /	1.8%	-16.4%	/
> Cc1nc(NC(=O)CN2CC(C)OC(C)C2)sc1C(=O)N(C)C (configuration not stated)
  /	3.4%	8.3%	2.5%
> NC(=O)CC(NC(=O)c1ccc(Br)cc1)c1ccc(NCCc2ccc(F)cc2)c([N+](=O)[O-])c1 (configuration not stated)
  9.3	-3.3%	0.5%	-8.1%
> O=C1NC(=O)C(CC(=O)N(Cc2ccco2)C2(C(=O)NC3CCCCC3)CCCCC2)N1 (configuration not stated)
  10.2	0.0%	-0.9%	-2.7%
